Rango release inh: inhibitors of RanGTP-induced Rango-importin beta complex dissociation | Biochemical FRET Rango-importin beta, RanGTP-induced dissociation | Potency, µM (highest dose often 46.1 µM), inactives show at the top dose activity change, negative = inhibition | actives 0.071% (n = 340,000) | AID 540253; active means falling FRET ratio curve, often poorly fitted, with flat reads before Ran was added; inconclusive means other falling curves, or compound fluorescence or quenching; inactive means flat or rising ratio curve;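 further: potency means the concentration at half of the fitted maximal effect; % of control where 0% means no effect; nearly all actives have a fitted effect of over 45% in size; -100% = wells without RanGTP and RCC1; the record marks most hits as doubtful in a second field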
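Two FRET readings bracket the reaction: one 5 min after compound meets Rango–importin beta, another 45 min after RanGTP-RCC1 (0.6 uM Ran, 0.2 uM RCC1, 2 mM GTP) is added. Only the second defines inhibition.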
miR-21 reporter: miR-21 reporter, rising signal. HeLa miR-21 FLuc reporter, luciferase, 48 h. 340,000 tested, under 10 active. AID 2288. Potency, µM (doses to about 38.3 µM), for the others: at the highest dose reporter change, positive = more light; active = well fitted rising curve with a large enough effect; inconclusive = small, poorly fitted or top-dose-only effect; inactive = no such curve, though single readings can be large or run the other way;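 further: % of control where 0% means no effect; miR-21 action dims this reporter so a rising signal means less miR-21 action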
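Luminescence from a firefly luciferase reporter carrying a miR-21 binding site downstream, stably expressed under a CMV promoter in HeLa cells that make miR-21 endogenously, reports miRNA modulation after 48 h compound exposure up to approximately 40uM final.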
GLA inh pH 4.5: blocks human alpha-galactosidase A at pH 4.5; AID 1467; activity change, negative = inhibition, % at 105 µM; purified enzyme, 4-MU-alpha-Gal fluorescence, pH 4.5; 230,000 tested, under 10 active; P06280; inconclusive = small, poorly fitted or top-dose-only inhibition, or a rising curve; inactive = flat fitted curve, though single readings scatter; no compound was filed as active;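 further: 0% = full activity with enzyme and -100% = basal without enzyme; dose as in the result columns while the protocol names 77 µM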
Rango-impB inh: prevents formation of the Rango-importin beta complex. Potency, µM (highest dose often 92.2 µM), without a hit: at the top dose inhibition of complex formation. Rango CFP/YFP FRET sensor + importin beta, 45 min. Q14974. actives 0.031% (n = 340,000); active = rising FRET ratio curve, often small or poorly fitted; inconclusive = mostly compound fluorescence or quenching in the first reads; inactive = flat curves in all reads;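 further: potency means the concentration at half of the fitted maximal effect; 0% = DMSO wells and 100% = buffer wells lacking importin beta; nearly all actives have a fitted effect of over 15% in size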
Target sequence (Q14974 whole entry, looked up): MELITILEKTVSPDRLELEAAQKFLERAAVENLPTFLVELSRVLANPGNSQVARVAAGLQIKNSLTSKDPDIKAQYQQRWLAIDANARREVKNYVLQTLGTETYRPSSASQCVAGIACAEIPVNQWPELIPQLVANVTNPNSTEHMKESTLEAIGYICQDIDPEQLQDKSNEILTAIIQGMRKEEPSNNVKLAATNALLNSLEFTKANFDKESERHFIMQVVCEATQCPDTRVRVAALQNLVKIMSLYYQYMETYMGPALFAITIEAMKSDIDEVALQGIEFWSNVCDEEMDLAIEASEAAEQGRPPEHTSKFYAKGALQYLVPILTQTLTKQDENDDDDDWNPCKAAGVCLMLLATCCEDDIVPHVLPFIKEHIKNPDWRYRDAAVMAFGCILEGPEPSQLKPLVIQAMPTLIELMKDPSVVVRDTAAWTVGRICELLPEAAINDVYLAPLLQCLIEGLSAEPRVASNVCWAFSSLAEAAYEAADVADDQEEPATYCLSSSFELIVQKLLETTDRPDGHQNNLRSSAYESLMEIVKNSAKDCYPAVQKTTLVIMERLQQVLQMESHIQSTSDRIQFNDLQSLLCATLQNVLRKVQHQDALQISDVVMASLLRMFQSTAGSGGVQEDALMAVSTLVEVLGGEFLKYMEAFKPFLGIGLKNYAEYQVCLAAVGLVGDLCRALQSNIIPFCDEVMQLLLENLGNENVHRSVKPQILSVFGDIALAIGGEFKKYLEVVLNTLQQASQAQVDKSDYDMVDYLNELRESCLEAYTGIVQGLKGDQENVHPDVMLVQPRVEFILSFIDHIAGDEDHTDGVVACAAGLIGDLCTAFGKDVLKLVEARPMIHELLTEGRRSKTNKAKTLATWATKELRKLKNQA
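FRET biosensor Rango (snurportin 1 IBB between N-terminal EYFP and C-terminal Cerulean), 50 nM in PBS/1 mM DTT/0.02% Tween-20/0.1% BSA, preincubated 5 min RT with compound; 0.125 microM importin beta added, 45 min RT, CFP/YFP FRET ratio read.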
The depositor's hits bear a star; ? = inconclusive; · = no result given.

no.	Rango release inh	miR-21 reporter	Structure	GLA inh pH 4.5	Rango-impB inh
1	3%	-3%	O=C(CSc1nnc(SCc2ccccc2Cl)s1)N/N=C/c1c[nH]c2ccccc12	-5	0.2%
2	-5%	-4%	O=S(=O)(Nc1cccc(-c2nnco2)c1)c1ccc(F)cc1F	1	-2.5%
3	0%	-3%	COCCCNC(=O)/C(C#N)=c1\s/c(=C\c2ccccc2OC(F)F)c(=O)n1CCCOC	3	?
4	3%	-1%	O=C(Cn1nnc(-c2ccc(Cl)cc2)n1)NC1CCN(Cc2ccccc2)CC1	-7	8.4%
5	-12%	-2%	COc1ccc(/C=N/n2c(SC)nnc(C(C)(C)C)c2=O)cc1	4	1.1%
6	-8%	·	O=C(Cc1ccccc1[N+](=O)[O-])NCC1(c2cccc3c2OCO3)OCCO1	·	-0.6%
7	9%	-2%	Cc1ccc(S(=O)(=O)NCc2n[nH]c(=S)n2C)cc1	0	0.9%
8	19%	-2%	COc1cccc2cc(C(=O)N(C)C3CCN(C)CC3)c(=O)oc12	8	6.5%
9	12%	4%	O=C(CSCC(=O)N1CCN(c2ccccc2)CC1)Nc1nc(-c2ccc(Cl)s2)cs1	-2	-3.5%
10	-12%	-4%	COc1ccc(NC2CCCN(C(=O)c3cccc(N(C)C)c3)C2)cc1 (stereo unspecified)	·	8.1%
11	-14%	-10%	Cc1ccc(N=Cc2cc(C)n(C3CCCC3)c2C)cc1	-2	-5.5%
12	13%	·	CC(C(=O)Nc1ncc([N+](=O)[O-])s1)N1C(=O)c2ccccc2S1(=O)=O (stereo unspecified)	·	2.8%
13	-9%	-25%	NS(=O)(=O)c1ccc(N/N=C/c2ccccc2Br)cc1	-8	-0.1%
14	16%	5%	CC(=O)c1ccc(NC(=O)C(Cc2ccccc2)n2cccc2)cc1 (stereo unspecified)	5	-2.3%
15	-4%	-8%	CCc1ccc(NC(=O)COc2cccc(-n3cnnn3)c2)cc1	·	4.3%
16	3%	-5%	CCC(C)[C@H](NC(=O)[C@H](Cc1ccccc1)n1c(=O)[nH]c2ccccc2c1=O)C(=O)NCC1CCC(C(=O)O)CC1 (stereo partly specified)	·	6.9%
17	-4%	1%	Cc1cccc(N2CCN(C(=O)c3ccnn3C)CC2)c1C	·	-0.3%
18	-4%	0%	O=C(O)CC(NC(=O)C(F)(F)F)c1ccc2c(c1)OCO2 (stereo unspecified)	6	2.3%
19	-8%	-42%	CC(C)CC(=O)Nc1ccc(-c2cn3cccnc3n2)cc1	·	-1.3%
20	-4%	-4%	O=C(CN1C(=O)c2ccccc2C1=O)NCc1ccccn1	-2	0.3%

One compound at a time, from the list above. Order of screens: Rango release inh | miR-21 reporter | GLA inh pH 4.5 | Rango-impB inh
Shown for Cc1ccc(N=Cc2cc(C)n(C3CCCC3)c2C)cc1 : -14% | -10% | -2 | -5.5%
Shown for CCC(C)[C@H](NC(=O)[C@H](Cc1ccccc1)n1c(=O)[nH]c2ccccc2c1=O)C(=O)NCC1CCC(C(=O)O)CC1 (stereo partly specified) : 3% | -5% | · | 6.9%
Shown for O=C(O)CC(NC(=O)C(F)(F)F)c1ccc2c(c1)OCO2 (stereo unspecified) : -4% | 0% | 6 | 2.3%

Following part.
no.	Rango release inh	miR-21 reporter	Structure	GLA inh pH 4.5	Rango-impB inh
21	-9%	-22%	COc1cccc(OCc2cc(C(=O)N(C)Cc3nc4ccccc4[nH]3)no2)c1	·	0.7%
22	1%	1%	CC(C)(C)NC(=O)CSc1nc(N)c(-c2ccccc2)c(=O)[nH]1	-1	0.5%
23	21%	21%	O=C(Nc1ccc(F)cc1)c1cc(S(=O)(=O)N2CCCCC2)cs1	-4	-4.1%
24	-3%	5%	O=S(=O)(NCc1ccccc1)c1ccc(Cl)c(S(=O)(=O)NCc2ccccc2)c1	1	-5.6%
25	-7%	-10%	O=C1Nc2ccccc2C1Cc1ccccn1 (stereo unspecified)	7	2.5%
26	-2%	-20%	Cc1ccc(OCC(=O)N2CCc3ccccc3C2)c(C)c1	·	2.9%
27	-18%	-7%	COc1cccc(Oc2ncnc(N)c2[N+](=O)[O-])c1	·	0.4%
28	9%	·	COc1ccc(-c2coc3cc(O[C@@H]4O[C@H](CO)[C@@H](O)[C@H](O)[C@H]4O)ccc3c2=O)cc1	·	-1.7%
29	-11%	-1%	CCOc1ccc(CN2C(=O)c3ccccc3C2=O)cc1C(=O)N1CCC(C(N)=O)CC1	·	-0.2%
30	-5%	0%	COC(=O)/C=c1/sc2nc3ccccc3n2c1=O	9	-0.5%
31	7%	0%	Cc1cc(OCc2cc(C(=O)NC3CCC3)no2)cc(C)c1Cl	·	4.2%
32	?	-3%	O=C(c1cc2nc(-c3ccco3)cc(C(F)(F)F)n2n1)N1CCc2ccccc2C1	-2	?
33	-1%	0%	CCC(Sc1nc2ccccc2s1)C(=O)Nc1nnc(C)s1 (stereo unspecified)	5	6.3%
34	-22%	-22%	C/C(=N/O)c1cccc(N2Cc3ccccc3C2)c1	·	-2.5%
35	-1%	-47%	Cc1c(CC(=O)N[C@H](C(=O)O)C(C)C)c(=O)oc2cc3c(cc12)CCC(C)(C)O3	·	0.1%
36	-9%	-50%	O=C(Nc1ccccc1)c1ccc(-c2ccc([N+](=O)[O-])cc2)o1	·	?
37	-15%	·	CCN(CC(=O)NCc1cccs1)C(=O)c1cc(=O)[nH]c2ccccc12	·	0.3%
38	-18%	29%	CCOC(=O)c1c(N2C(=O)C=CC2=O)sc(C)c1C	4	-1.1%
39	-8%	-2%	O=C(Nc1nnc(-c2ccc(Cl)cc2)o1)c1nc2ccccc2s1	-2	-1.8%
40	5%	-18%	Cc1cc(=O)oc2cc(OCC(=O)N/N=C/c3ccccc3[N+](=O)[O-])ccc12	-21	-0.5%
41	5%	-8%	Cc1cc(C)c(C)c(OCCn2ccnc2)c1	·	3.4%
42	7%	-11%	CN(Cc1ccccc1)C(=O)c1nn2cccnc2c1Cl	?	1.3%
43	17%	·	CC(=O)c1cccc(NC(=O)C(C)OC(=O)Cc2c[nH]c3ccccc23)c1 (stereo unspecified)	·	2.8%
44	-10%	-21%	Cc1cccc(S(=O)(=O)Nc2ccc(-c3cn4ccccc4n3)cc2)c1	1	-4.0%
45	-1%	-2%	N#Cc1c(-c2cccs2)nc(SCc2ccc(Cl)cc2)[nH]c1=O	4	-2.2%
46	-16%	·	O=C(NCCCN1CCOCC1)c1cccc(S(=O)(=O)NCc2ccccc2)c1	·	0.0%
47	16%	-17%	Oc1ccc(-c2nc(=S)[nH][nH]2)cc1	-2	?
48	0%	-1%	O=C(CCC(=O)OCC(=O)c1ccc([N+](=O)[O-])cc1)Nc1ccccc1Cl	·	0.2%
49	?	-4%	Cn1c(CNC(=O)C2CCCCC2)cc2ccccc21	·	-1.1%
50	-6%	-2%	COc1cccc(-c2nc(CS(=O)(=O)CC(=O)NCCN3CCOCC3)c(C)o2)c1	·	-1.0%
51	?	-7%	COc1ccc(Nc2oc(COc3ccccc3F)nc2C#N)cc1	-12	-3.0%
52	-9%	-44%	Cc1ccc(OCc2nc(-c3ccccc3)no2)c(C)c1	3	0.5%
53	-17%	-2%	N/N=C(\c1ccccc1)c1cc(Cl)ccc1N	·	-0.1%
54	?	0%	CCC1OC23CCCCC2C(C#N)(C(=N)O3)C1(C#N)C#N (stereo unspecified)	?	?
55	?	-3%	Cn1c(SCC(=O)N2CCOCC2)nnc1-c1ccc(Cl)cc1Cl	2	?
56	0%	-6%	O=C(CCc1ccccc1)N1CCN(c2ccc(F)cc2)CC1	1	3.5%
57	-12%	1%	CCOC(=O)c1cc2occc2n1CC(=O)N1CCN(C(=O)c2ccco2)CC1	-6	2.1%
58	-7%	-12%	O=C(NC(=S)Nc1ccc(Cl)c(C(=O)O)c1)c1cccc(COc2ccccc2)c1	·	10%
59	13%	-2%	COc1ccc(/C=N/NC(=O)c2cccc(Br)c2)cc1Cn1cc(Cl)cn1	-18	0.7%
60	7%	-9%	CCCCCCOc1ccc(C(CC(N)=O)C(=O)O)cc1 (stereo unspecified)	5	-0.7%

Part of the list above in order of SMILES length, smallest number first:
no.	Rango release inh	miR-21 reporter	Structure	GLA inh pH 4.5	Rango-impB inh
41	5%	-8%	Cc1cc(C)c(C)c(OCCn2ccnc2)c1	·	3.4%
60	7%	-9%	CCCCCCOc1ccc(C(CC(N)=O)C(=O)O)cc1 (stereo unspecified)	5	-0.7%
54	?	0%	CCC1OC23CCCCC2C(C#N)(C(=N)O3)C1(C#N)C#N (stereo unspecified)	?	?

Additional records:
no.	Rango release inh	miR-21 reporter	Structure	GLA inh pH 4.5	Rango-impB inh
61	19%	-49%	O=C(O)Cc1ccc(N=Nc2c(O)c(C(=O)O)cc3ccccc23)cc1	1	2.4%
62	-8%	7%	CCC(CC)C(=O)c1c[nH]c(C(=O)NCc2cccnc2)c1	-11	0.2%
63	-3%	-13%	O=C(c1cccc([N+](=O)[O-])c1)N1CCN(c2ccccn2)CC1	5	2.3%
64	11%	-10%	COc1ccccc1CC(NC(C)=O)C(=O)NC1CCN(C(=O)c2ccc([N+](=O)[O-])cc2)CC1 (stereo unspecified)	-2	-1.1%
65	3%	·	COC(=O)C1OC1c1cc([N+](=O)[O-])ccc1OC (stereo unspecified)	·	0.4%
66	-7%	-11%	CC1Cc2cc(/C(O)=C3/C(=O)C(=O)N(CCN4CCOCC4)C3c3ccc([N+](=O)[O-])cc3)ccc2O1 (stereo unspecified)	·	0.4%
67	-1%	-1%	O=C(COc1ccc2ccccc2c1)NNC(=O)c1cnccn1	1	-2.0%
68	·	0%	CCOc1ccc(NC(=O)c2nn(-c3ccc(OC)cc3OC)c(=O)c3ccccc23)cc1	-2	·
69	5%	3%	COC(=O)c1c(C)oc(C)c1S(=O)(=O)N1CCCC1	3	-2.8%
70	2%	-13%	O=C(COc1cccc(NC(=O)c2ccco2)c1)c1ccccc1	-2	-1.3%
71	4%	3%	O=C(CSCc1ccc(Cl)cc1)NCCSCc1ccco1	-14	?
72	-4%	9%	COc1cc(NC(=O)Nc2cccc(C(C)=O)c2)cc(OC)c1OC	4	-0.6%
73	0%	-2%	N#C/C(=C\c1ccccc1)C(=O)NCc1ccc(F)cc1	·	0.8%
74	-4%	-3%	Cc1cc(Cl)ccc1OC(C)C(=O)Nc1ccc([N+](=O)[O-])cn1 (stereo unspecified)	-2	1.7%
75	1%	·	O=C(NC(=S)NCc1ccc(Cl)cc1Cl)c1ccco1	·	-1.8%
76	?	-5%	CCC1CCCCN1CCCNC(=O)c1ccc2c(c1)N(Cc1c(F)cccc1Cl)C(=O)CS2 (stereo unspecified)	·	1.6%
77	5%	10%	O=C(CN(C1CC1)S(=O)(=O)c1ccc(S(=O)(=O)NC2CCCCC2)cc1)Nc1ccccc1	4	0.0%
78	25%	0%	Cc1ccc(CNc2ncnc(N)c2[N+](=O)[O-])cc1	-5	-0.1%
79	15%	1%	COc1ccc(NC(=O)CCN2CCCCC2)cc1	0	4.4%
80	-15%	2%	CN(NC(=O)NN)c1ncc(C(F)(F)F)cc1Cl	4	-0.9%

An excerpt from above in order of the Rango release inh value, rising.
| cpd | structure | Rango release inh |
| --- | --- | --- |
| 30 | COC(=O)/C=c1/sc2nc3ccccc3n2c1=O | -5% |
| 35 | Cc1c(CC(=O)N[C@H](C(=O)O)C(C)C)c(=O)oc2cc3c(cc12)CCC(C)(C)O3 | -1% |
| 23 | O=C(Nc1ccc(F)cc1)c1cc(S(=O)(=O)N2CCCCC2)cs1 | 21% |

The results go on.
no.	Rango release inh	miR-21 reporter	Structure	GLA inh pH 4.5	Rango-impB inh
81	9%	1%	O=C(NCSc1ccnc(SCNC(=O)c2ccc(F)cc2)n1)c1ccc(F)cc1	-2	-0.1%
82	0%	·	Oc1ccc(-c2nc3ccccc3nc2-c2ccc(O)cc2O)c(O)c1	·	1.7%
83	18µM*	-52%	COc1ccccc1N1C(=O)S/C(=C\c2cc(C)n(C)c2C)C1=O	-11	?
84	11%	4%	O=C(O)c1ccc(S(=O)(=O)N(CCc2ccccc2)Cc2ccc(Cl)cc2)cc1	·	4.7%
85	-33%	-12%	O=C(Nc1ccc2nc3ccccc3nc2c1)c1ccc(Br)cc1	7	?
86	-12%	0%	Cc1cccnc1CCNC(=O)CC1C(=O)NCCN1CC1CCCCC1 (stereo unspecified)	2	-3.4%

Looked up above.
entry 38 | Rango release inh = -18%
entry 83 | miR-21 reporter = -52%

Not all compounds are listed; rates above refer to the full screens.
